# Choline anaer gr = choline-fed anaerobic bacterial growth inhibition. Gram-negative bacterium anaerobic choline minimal medium, absorbance growth; stronger effect = lower value; many inactives read as strong as hits in the columns shown. calls only. 0.2% of 55,000 active;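 active = growth z-score on choline under -2 at 7 or 20 h with little or no fall on glycerol, limits in tiers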;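 also: stock transfer was 300 nL into about 50 µL; the organism is E. coli; final concentration not given here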
# Choline anaer gr early = also measured in Choline anaer gr; calls as there; z-score; measured here: choline growth z-score, timepoint 1;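 score of optical density at 7 h as mean of two plates; lower means less growth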
# Numbers without * were called inactive; i = inactive; & = joins results of further samples.
SMILES,Choline anaer gr,Choline anaer gr early
CCCNC(=O)c1ccc(Nc2ccc(-c3cccc(C)c3)nn2)cc1,i,-0.24
Cn1c(=O)n(C)c2cc(S(=O)(=O)Nc3cccc(-c4nnc(-c5ccccc5)o4)c3)ccc21,i,-0.07
N#CC1=CN(c2ccc(F)cc2F)c2ccccc2S1(=O)=O,i,0.02
N#CC(C#N)=C(N)/C(C#N)=C/c1ccc2[nH]ccc2c1,i,1.6
CCC1(CC)Cc2ccccc2-c2[nH]c(=O)n(C)c(=O)c21,i,-0.71
O=C1c2cccnc2C(=O)N1Cc1ccc(F)cc1S(=O)(=O)N1CCc2ccccc2C1,i,-1.1
CC(C)NC(=O)N1CCCN(c2nc3cc(Br)ccc3n3cccc23)CC1,i,-0.47
CCSc1ncc2c(=O)n(CC(=O)N3CCC(C)CC3)cnc2n1,i,-0.82
CC(C)n1c(=O)[nH]c2c(C(=O)N3CCSCC3)snc2c1=O,i,0.79
COc1cccc(CNC(=O)C2=C(c3ccccc3)c3cc(Cl)ccc3S(=O)(=O)N2C)c1,i,0.62
Cc1nc(C)c(C(=O)Nc2ccc(F)cc2)s1,i,0.97
Cc1cc(C)c2c(n1)SCCN2C(=O)Nc1ccccc1,i,0.36
CCOc1ccc(S(=O)(=O)c2cn(CC(=O)Nc3ccc(C(C)C)cc3)c3nc(C)ccc3c2=O)cc1,i,0.14
Cc1ccc(C(C)C)c(OC(C)C(=O)Nc2onc3c2CCCC3)c1 (stereo unspecified),i,-0.51
COC(=O)c1cc(OC)c(OC)cc1NC(=O)c1c(C)oc2ccc(OCc3ccccc3)cc12,i,-0.62

# Looked up by compound from the list above (5):
SMILES,Choline anaer gr,Choline anaer gr early
Cc1nc(C)c(C(=O)Nc2ccc(F)cc2)s1,i,0.97
CC(C)NC(=O)N1CCCN(c2nc3cc(Br)ccc3n3cccc23)CC1,i,-0.47
CCC1(CC)Cc2ccccc2-c2[nH]c(=O)n(C)c(=O)c21,i,-0.71
N#CC(C#N)=C(N)/C(C#N)=C/c1ccc2[nH]ccc2c1,i,1.6
COc1cccc(CNC(=O)C2=C(c3ccccc3)c3cc(Cl)ccc3S(=O)(=O)N2C)c1,i,0.62

# Continuation.
SMILES,Choline anaer gr,Choline anaer gr early
O=C(Nc1ccc(Br)cc1F)N1CCN(Cc2nc3cccnc3n2-c2cccc(F)c2)CC1,i,-0.7
CCC(C)Sc1nc2c(cnn2CCO)c(=O)[nH]1 (stereo unspecified),i,-0.5
Cc1c(CCNC(=O)c2cccc(Br)c2)sc2nc(-c3ccc(F)cc3)nn12,i,1.1
CCc1nc2sc(C(C)C)nn2c1S(=O)(=O)N1CCCC1,i,0.04
CC(=O)Nc1c2n(c3ccc(F)cc13)CC(C)(C(=O)NC1CCCC1)N(C(C)c1ccccc1)C2=O (stereo unspecified),i,0.4
Cc1c(C)n(-c2nccs2)c2ncn3nc(-c4ccc(C(C)(C)C)cc4)nc3c12,i,-0.89
CC1(C)SC2C(NC(=O)C(C(=O)O)c3ccsc3)C(=O)N2C1C(=O)O (stereo unspecified),i,0.87
CCOC(=O)C1CCN(C(=O)c2cc3ccc4ccc(C)[nH]c4c3n2)CC1,i,-0.4
CCCNC(=O)N1CCCC1c1c(C)noc1C (stereo unspecified),i,0.57
CC1CCN(S(=O)(=O)c2ccc(CNC(=O)c3cccs3)s2)CC1,i,1
CN1CCN(c2cc3c(nn2)Oc2cc(N)ccc2N3C)CC1,i,-0.62
CC1N=C2c3ccccc3N=C(SC(C)C(=O)Nc3ccccc3Cl)N2C1=O (stereo unspecified),i,-1.3
NC(=O)C(=O)O,i,0.29
CC1CCN(CCCNC(=O)c2cc3c(s2)CN(C(C)C)C3)CC1,i,0.66
Cn1c(=O)c2c(C(=O)NCCCN3CCOCC3)cc(=O)n(C)c2n(C)c1=O,i,-1.3

# 3 compounds from above, arranged by the number in Choline anaer gr early, descending:
compound,Choline anaer gr early
CC(=O)Nc1c2n(c3ccc(F)cc13)CC(C)(C(=O)NC1CCCC1)N(C(C)c1ccccc1)C2=O (stereo unspecified),0.4
NC(=O)C(=O)O,0.29
Cn1c(=O)c2c(C(=O)NCCCN3CCOCC3)cc(=O)n(C)c2n(C)c1=O,-1.3

# Carrying on.
SMILES,Choline anaer gr,Choline anaer gr early
Fc1cccc(-c2noc(-c3cc(N4CCN(c5ccccn5)CC4)nc4ccccc34)n2)c1,i,0.14
CNC(=C[N+](=O)[O-])NCCSCc1ccc(CN(C)C)o1,i,0.76
CNC(=O)C1CCCN(C(=O)c2ccc(NS(=O)(=O)c3ccc(C(C)(C)C)cc3)cc2)C1 (stereo unspecified),i,1
CN(C)C(=O)c1ccc2c(c1)nc(CN(C)S(=O)(=O)c1ccc(Br)cc1)n2C,i,0.41
Cc1nn(-c2ccc(F)cc2)c2sc(C(=O)OCc3ccc4c(c3)OCO4)cc12,i,-0.23
COc1ccc(-c2nc(SCC(=O)Nc3nccs3)c(-c3ccccc3)[nH]2)cc1,i,0.89
Cc1ccc(N2C(=O)CCS2(=O)=O)cc1S(=O)(=O)N1CCC(C)CC1,i,0.27
CCCCC/C=C\C/C=C\C/C=C\C/C=C\CCCC(=O)O,i,0.52
COc1ccc(N2CCN(c3ncc(S(=O)(=O)c4ccc(C)c(C)c4)c(N)n3)CC2)cc1,i,1.1
Cn1c(=O)n(CC(=O)O)c(=O)c2c1nc1n2CCCN1C1CCCCC1,i,0.9
O=C(Nc1ccc2c(c1)OCCO2)c1ccc(Nc2ccc(-c3ccc(F)cc3)nn2)cc1,i,0.06
CC1Cc2cc(S(=O)(=O)N3CCc4ccccc4C3)ccc2N1C(=O)C1CCC1 (stereo unspecified),i,1.5
CN(C)CCn1c(CCCC(=O)N2CCc3ccccc32)nc2cccnc21,i,-1.1
Cc1cc(C)c(S(=O)(=O)NCC(=O)NCc2cscn2)c(C)c1,i,-0.48
CCN1C(=O)c2ccccc2Sc2cc(-c3noc(-c4cnccn4)n3)ccc21,i,0.85
CC1CCN(S(=O)(=O)c2ccc3ncn(CC(=O)NC4CCCCC4)c(=O)c3c2)CC1,i,-1.2
CC(C)(CO)NCc1ccc(-c2ccc(Cl)cc2Cl)o1,i,-0.63
Cc1ccc(-n2nnc(C(=O)OCc3cc(C)ccc3C)c2C)cc1,i,-0.29
Cc1ccc(Cl)cc1NC(=O)c1ccc(-n2nc(OCc3ccc(Cl)cc3)ccc2=O)cc1,i,1.2
O=C(c1cc(-c2cccnc2)n[nH]1)N1CCCC(C(=O)N2CCN(c3ccccn3)CC2)C1 (stereo unspecified),i,0.02
O=C(CNC(=O)c1ccccc1)OCc1cc(=O)n2ccsc2n1,i,-0.39
Cc1ccc2c(c1)n(Cc1ccc(Cl)cc1)c(=O)c1nc(C(=O)O)nn12,i,0.44
CSc1ccc(-n2nc(C)c(C)c2C)nn1,i,-0.7
O=C(NCc1ccco1)C1CCN(c2cncnc2N2CCCC2)CC1,i,0.66
O=C(Nc1ccc2c(c1)OCCO2)N1CCC(NS(=O)(=O)c2ccc(Cl)cc2)CC1,i,-0.22
Cn1c(CN2CCN(S(=O)(=O)c3ccc(F)cc3)CC2)nc2cc(C(=O)N3CCCC3)ccc21,i,-0.13
O=C(CN1CCCCC1)c1c[nH]c2ccccc12,i,-0.4
Cc1cc(C)n(C(=O)c2sccc2S(=O)(=O)N2CCN(c3cccc(Cl)c3)CC2)n1,i,-1.4
Cc1ccc(NC(=O)COc2ccc(-c3cnc4ccccc4n3)cc2)cc1,i,-2
NC1C=CC=C(C(=O)O)C1 (stereo unspecified),i,-0.3
COc1ccccc1NC(=O)Cn1c(=O)n(-c2ccc(C)cc2)c(=O)c2ccccc21,i,-0.27
CCn1nc(C)c2c1c(=O)n(CCc1ccccc1)c(=O)n2Cc1ccccc1,i,0.7
CCOc1ccc2nc(N3CCCC(C(=O)NCCc4ccc(S(N)(=O)=O)cc4)C3)sc2c1 (stereo unspecified),i,-0.46
CCOCCCNc1nc2ccccc2c2nc(CCn3c(C)nc4ccccc43)nn12,i,-1.6
O=C(NCCC1=CCCCC1)c1cccc(-c2cc(N3CCCC3)ncn2)c1,i,-0.89
Cc1c(C(=O)NCCC2=CCCCC2)sc2ncnc(N3CCN(C)CC3)c12,i,0.28
Cc1c(N2CCN(C(=O)c3cccc(Cl)c3)CC2)c(=O)n(C)c(=O)n1C,i,-0.04
CCn1ccc2c(cc(C(=O)Nc3ccc(OC)c(OC)c3)n2C)c1=O,i,-0.32
Cn1nnc2cc(-c3noc(C4CC(=O)N(C5CCCC5)C4)n3)ccc21 (stereo unspecified),i,-0.08
Cc1nn(-c2ccc3nnc(C)n3n2)c2c1C(c1cccc(OCc3ccccc3)c1)CC(=O)N2 (stereo unspecified),i,-0.89
CC1=NS(=O)(=O)c2cc(S(=O)(=O)CC(=O)Nc3cc(C)cc(C)c3)ccc2N1,i,0.52
Cc1cc(NCC(C)C)n2nc(C(F)(F)F)c(-c3ccccc3Cl)c2n1,i,-0.16
O=C(NCCc1cnc[nH]1)c1nc(Nc2ccc(F)cc2)c2ccccc2n1,i,-1.3
COc1cc2c(CCNC(C)=O)c[nH]c2cc1Cl,i,0.34&0.57
CC1CCC(NC(=O)C2(C)Cn3c(cc4occc43)C(=O)N2CCN(C)C2CCCCC2)CC1 (stereo unspecified),i,-0.43
CC(C)CN1CCN(C(=O)C2CCN(c3cncnc3N3CCOCC3)CC2)CC1,i,0.39
Cc1ccccc1-c1nc2c3c(C)c(C)n(Cc4ccccc4)c3ncn2n1,i,0.78
CCCOC1CCN(C(=O)NC)CC1,i,-0.42
Cc1ccc(C2=CC(c3ccccc3Cl)n3nc(NS(C)(=O)=O)nc3N2)cc1 (stereo unspecified),i,0.35
COc1ccc(OC)c(NC(=O)N2CCC3(CC2)Nc2cc(OC)ccc2-n2cccc23)c1,i,-0.28
CCOc1ccc(-c2noc(-c3ccc[nH]c3=O)n2)cc1OC,i,-0.24
CC[C@@]1([C@@H]2O[C@@H]([C@H]3O[C@@](O)(CO)[C@H](C)C[C@@H]3C)C[C@@H]2C)CC[C@H]([C@]2(C)CC[C@]3(C[C@H](O)[C@@H](C)[C@@H]([C@@H](C)[C@@H](OC)C(C)C(=O)O)O3)O2)O1 (stereo partly specified),i,0.67
Cc1oc(-c2ccc(C(=O)N3CCc4ccccc4C3)cc2)nc1CN1CCc2ccccc21,i,0.68
COc1ccc(NC(=O)c2ccc(-n3nc(N4CCCC4)ccc3=O)cc2)cc1OC,i,-0.34
Cc1ccc(-c2cnc(C3CC3)o2)cc1S(=O)(=O)N1CCc2ccccc2C1,i,1.7
Cn1c(=O)oc2cc(-c3noc(-c4cccnc4Cl)n3)ccc21,i,-0.44
CNC(=O)N(C)Cc1cccs1,i,-0.02
COc1ccc(F)cc1S(=O)(=O)NCC1(C)CCOCC1,i,0.35
Cc1ccc(-c2ccc(SCc3nc(-c4ccc5c(c4)OCO5)no3)nn2)cc1,i,0.84
O=C(c1ccc(Nc2ccnc(-c3cccc(F)c3)n2)cc1)N1CCCC1,i,-0.48

# Profiles from above. Order of values: Choline anaer gr | Choline anaer gr early
# `Cc1ccc(-c2ccc(SCc3nc(-c4ccc5c(c4)OCO5)no3)nn2)cc1` across the screens: i | 0.84
# `CC[C@@]1([C@@H]2O[C@@H]([C@H]3O[C@@](O)(CO)[C@H](C)C[C@@H]3C)C[C@@H]2C)CC[C@H]([C@]2(C)CC[C@]3(C[C@H](O)[C@@H](C)[C@@H]([C@@H](C)[C@@H](OC)C(C)C(=O)O)O3)O2)O1` (stereo partly specified) across the screens: i | 0.67
# `CCCOC1CCN(C(=O)NC)CC1` across the screens: i | -0.42
# `CC(C)CN1CCN(C(=O)C2CCN(c3cncnc3N3CCOCC3)CC2)CC1` across the screens: i | 0.39

# The list goes on:
SMILES,Choline anaer gr,Choline anaer gr early
CN1CC(=O)N(CC(=O)Nc2nccs2)c2ccccc2C1=O,i,-0.33
Cc1ccc2c(c1)N(CCCC(=O)NCCN1CCOCC1)C(=O)CO2,i,-1
Cc1nn(S(C)(=O)=O)c(C)c1S(=O)(=O)N1CCC(C)CC1,i,-1.2
NC(=O)C1CCN(C(=O)CCCn2c(=O)c3cccn3c3ccc(Br)cc32)CC1,i,0.42
c1ccc(-c2nnn3c2nc(N2CCc4ccccc4C2)c2ccccc23)cc1,i,-0.99
N=C1C(c2nc3ccccc3s2)=C(O)CN1CC1COCCO1 (stereo unspecified),i,-0.56
CCN(C(=O)CSc1nnc(-c2ccncc2)o1)c1ccccc1,i,-0.8
CC(=O)N1CCCc2cc(S(=O)(=O)N3CCC(C(=O)N4CCN(C5CCCCC5)CC4)CC3)ccc21,i,0.29
CCCCn1c(=O)[nH]c2c(C(=O)N3CCC(C(=O)OCC)CC3)snc2c1=O,i,-1
CC(C)NC(=O)N1CCCC(c2cccc(C(=O)NCCN3CCCCC3)c2)C1 (stereo unspecified),i,0.75
CCCc1cc(C2CCCN2Cc2cccc(F)c2)no1 (stereo unspecified),i,-0.47
CCN(Cc1ccccc1)c1ncc(NS(=O)(=O)c2ccc(Br)cc2)cc1C(=O)O,i,0.02
COc1ccc(Cl)cc1N1C(=O)[C@@H]2CCCN2[C@H]1c1cccc(Br)c1,i,-1
Cc1ccc(-c2noc3ncnc(NC(C)C)c23)cc1,i,0.48
COc1ccc(S(=O)(=O)[C@H]2CS(=O)(=O)C[C@@H]2N2CCC3(CC2)OCCO3)cc1,i,-0.16
Cn1cc(C(=O)N2CCCC2)c2[nH]c(=O)n(-c3ccccc3)c(=O)c21,i,-1.1
CN(C)S(=O)(=O)c1ccc2c(c1)cc(C(=O)NC1CCCCC1)n2Cc1ccncc1,i,1
Cc1ccc(-n2cc[nH]c(=O)c2=O)cc1,i,0.77
CCC(C)NC(=O)CC1CCN(C(=O)c2ccc3oc(-c4ccccc4)nc3c2)CC1 (stereo unspecified),i,-1.5
O=C(c1ccc(S(=O)(=O)c2ccc(Cl)cc2)nc1)N1CCN(c2ncccn2)CC1,i,0.11
COc1ccc(-c2cnn3c(C)cc(C)nc23)cc1S(=O)(=O)N1CCCCC1,i,0.02
Fc1ccc(C(OCCCc2cnc[nH]2)c2ccc(F)cc2)cc1,i,-1.3
CC(C)NC(=O)c1cc2c(s1)CN(C1CCCC1)C2,i,0.31
CCN(c1ccc2sc(C(=O)N3CCN(c4ccc(OC)cc4)CC3)cc2c1)S(C)(=O)=O,i,0.11

# This is a subset (hit frequency here may not be typical).
